Ab BasE inh – BasE siderophore biosynthesis inhibition. inhibition, % (test concentration not listed). hit rate 0.1% among 84,000. AID 485350. purified BasE, fluorescence polarization binding displacement;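 active means both replicates above 25% with normal brightness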;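 further: 0% = negative plate control signal and 100% = positive plate control signal; stock transfer was 100 nL into about 30 µL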
LANA-nucl inh – inhibitors of KSHV LANA binding to nucleosomes | AID 720717 | FITC-LANA1-23 / chicken nucleosome fluorescence polarization; active compounds read low | z-score (no concentration beside the values) | hit rate 0.3% among 51,000;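 active means both repeat wells score below -2 in polarization z-score versus plate sample wells, excluding overly bright wells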;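 further: 100 nL library stock added to about 30 µL; numbers are from one replicate; some results filed as inactive read as strong as hits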
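Material: Purified chicken nucleosomes with FITC-labelled LANA N-terminal peptide (1-23) | Reagent: 50 nM FITC-LANA1-23 probe | Medium: TEN-BT buffer, pH 7.5 | Times: 10–45 min incubation at room temperature | Detection: Fluorescence polarization | Replication: Duplicates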
Starred values were filed as active, the others as inactive; / = no result given.

Value order – Ab BasE inh, LANA-nucl inh
O=C1NC(c2ccccc2)(c2ccccc2)C(=O)N1CN1CCN(S(=O)(=O)c2cccs2)CC1
    -0.4, /
CC(=O)N1CCCc2ccc(NC(=O)C(C)C)cc21
    2.8, 0.38
CCN(CC)S(=O)(=O)c1ccc(N(C)Cc2ccccc2OC)nc1
    0.6, /
O=C(O)CC(CC(=O)N1CCN(C(=O)c2ccco2)CC1)c1ccccc1 (stereo not given)
    2.1, /
N#CC1=C(N)Oc2cc(O)ccc2C1c1ccccc1 (stereo not given)
    1.4, 0.16
COc1ccc(OCC(=O)N=Nc2c(O)n(C)c3ccccc23)cc1
    1.4, -0.29
O=C(O)C1CC=CCC1C(=O)NNc1ncnc2ccccc12 (stereo not given)
    1.6, /
CC(CC(N)=O)c1ccccc1 (stereo not given)
    1.9, 0.24
CCOC(=O)c1c(C)[nH]c(C(=O)CSc2nccc(C)n2)c1C
    6.1, /
COc1cc(NC(=O)C2CC(=O)N(c3cccc(C)c3C)C2)c(OC)cc1Cl (stereo not given)
    /, 2.5
CS(=O)(=O)c1ccc(NC(=O)COc2ccc(C#N)cc2)cc1
    3.0, /
NC(=O)C1CCN(C(c2ccc(F)cc2)c2nnc(-c3ccccc3)o2)CC1 (stereo not given)
    0.2, -0.16
Cc1cc(C)cc(N2C(=O)N(CC(=O)NC(C)C)C3CS(=O)(=O)CC32)c1 (stereo not given)
    5.1, 0.57
COc1cc(/C=N/NC(=O)c2ccccc2-n2cccc2)ccc1O
    1.8, /
CCN1CCCC1CNC(=O)c1ccc(-n2ccc3ccccc32)s1 (stereo not given)
    -5.8, 2.6
CCN1CCc2c(OCC(=O)Nc3ccc(OC)cc3)cccc2C1=O
    -0.1, -2
Cc1ccc(C(CC(=O)O)C2CCOC(C)(C)C2)cc1 (stereo not given)
    -3.4, 0.059
O=c1cc(-c2ccccc2)nc(SCCO)[nH]1
    1.0, -0.58
CCOC(=O)CC1C(=O)NCCN1Cc1cccc2ccccc12 (stereo not given)
    1.0, -0.58
NC(=O)c1ccc[n+](CC(=O)c2ccccc2)c1
    1.6, /
CCCCOc1ccc(/C=N/n2cnnc2)cc1
    -1.6, /
O=C(CSc1nnc(-c2ccccc2F)n1Cc1ccccc1)N1CCNC1=O
    -2.3, /
CCCCS(=O)(=O)c1sc2nc3c(cc2c1N)CCCC3
    1.9, -0.18
CSc1nc2ccccc2c(=O)[nH]1
    /, -1.7
CN(C)CCOC(=O)C1(c2ccccc2)CCOCC1
    0.3, 0.48
CCC(CC)c1nnc(NC(=O)C2=NNC(=O)CC2)s1
    1.0, /
Clc1nc(-c2ccccc2)nc2ccccc12
    1.2, /
COC(=O)CC1C(=O)NCCN1C(=O)CSc1nc2ccccc2c(=O)n1-c1ccc(C)cc1 (stereo not given)
    3.2, /
COC(C(=O)NCc1ccccc1C)c1ccccc1 (stereo not given)
    -0.7, -0.14
Cc1nc(-c2ccccc2)cc(N2CCCC2)n1
    -0.2, -0.4

One compound at a time, from the list above.
`CCCCOc1ccc(/C=N/n2cnnc2)cc1` across the screens: Ab BasE inh = -1.6; LANA-nucl inh = /
`Cc1nc(-c2ccccc2)cc(N2CCCC2)n1` across the screens: Ab BasE inh = -0.2; LANA-nucl inh = -0.4
`COC(=O)CC1C(=O)NCCN1C(=O)CSc1nc2ccccc2c(=O)n1-c1ccc(C)cc1` (stereo not given) across the screens: Ab BasE inh = 3.2; LANA-nucl inh = /

New compounds follow:
Value order – Ab BasE inh, LANA-nucl inh
CC(C)(C)C(=O)COC(=O)Cn1nnc(N2CCCC2)n1
    1.4, /
Cc1nnc(NCCc2ccccc2)c2c1nnn2Cc1ccc(F)cc1
    -3.6, 1.8
COc1ccc(NC(C)=O)cc1
    1.1, /
COc1ccc(NC(=O)c2ccco2)c(NC(=O)Cc2cccs2)c1
    2.5, 0.33
c1ccc(-c2ccc3c(n2)CCc2ccccc2-3)cc1
    -0.8, /
COc1cc2nc(CSc3nnc(C4CC4)n3C3CC3)[nH]c(=O)c2cc1OC
    2.8, /
Cc1cc(C)n2nc(C(=O)NC(C)C3CC4CCC3C4)nc2n1 (stereo not given)
    -1.1, /
COc1ccc(Cc2nnc(N)o2)cc1OC
    4.4, /
CCOC(=O)c1c(C)[nH]c(C)c1S(=O)(=O)N(CC)c1ccc(OC)cc1
    0.6, /
COC(=O)c1scc(S(=O)(=O)C(C)(C)C)c1-n1cccc1
    4.1, /
O=C(c1ccco1)N(Cc1ccco1)c1ccc(O)cc1
    1.9, -0.34
CCc1ccc(N2CCN(S(=O)(=O)N(C)C)CC2)cc1
    1.1, 1.1
CN(C(=O)Nc1cccc(C(F)(F)F)c1)C1CCCCC1
    -0.5, 0.34
CCOC(=O)/C=C1\SCC(=O)N1C
    -0.3, /
O=C(C1CCCN(Cc2ccccc2F)C1)N1CCCCC1 (stereo not given)
    1.1, /
Cc1cc(/C=C2\SC(=S)N(Cc3ccco3)C2=O)c(C)n1-c1ccccc1
    -10, 1.1
O=C(COC(=O)Cn1c(=O)oc2ccccc21)Nc1cccc2nsnc12
    0.1, /
N#Cc1ccc(C(=O)Nc2cc(C(F)(F)F)ccc2-n2cncn2)cc1
    -0.8, /
COC(=O)c1sc(N)c(C(=O)OC)c1CSc1nc(C)cs1
    2.3, /
C=CCn1c(C2CC(=O)N(c3cc(Cl)ccc3OC)C2)nc2ccccc21 (stereo not given)
    0.3, 1
O=C(CN1CCN(c2ccccc2)CC1)N1c2ccccc2Sc2ccccc21
    /, -0.14
Cc1nc2ccccc2c(=O)n1/N=C/c1ccccc1O
    -6.2, 2.6
COC(NC(=O)c1ccccc1)(C(F)(F)F)C(F)(F)F
    1.4, /
CS(=O)(=O)N1N=C(c2ccc(Br)cc2)CC1c1cc2ccccc2nc1Cl (stereo not given)
    -0.9, /
Cc1nn(S(=O)(=O)c2ccccc2)c(C)c1S(=O)(=O)N1CCCCC1
    -0.2, 1.2
NC(=O)CSCc1c(Cl)cccc1Cl
    1.6, -0.43
COc1cc2c(cc1NC(=O)C(C)Sc1nnc(-c3cccs3)n1CC1CCCO1)oc1ccccc12 (stereo not given)
    -0.7, /
C=CCc1c(C)nc2ccccc2c1Cl
    0.8, -0.63
CC1CCC(NC(=O)COc2ccc3c(c2)OCO3)CC1 (stereo not given)
    2.1, /
COc1ccc(OC)c(S(=O)(=O)NCC(c2ccc(N(C)C)cc2)N2CCc3ccccc32)c1 (stereo not given)
    1.8, 0.4
Cc1nc2sc3c(c2c(=O)n1-n1cccc1)CCCC3
    0.4, /
COc1ccc(CN(C)C(=O)CSc2nccn2C)cc1OC
    0.6, /
COc1cccc(-c2noc(N3CCN(c4ccc(F)cc4)CC3)n2)c1OC
    2.5, -0.22
COc1ccc(C(=O)OCC2CC2)cc1Br
    3.3, 0.48
O=C1CCCC2=C1C(c1cccc(Cl)c1)C1C(=O)c3ccccc3C1=N2 (stereo not given)
    2.8, /
C=CCN=C1SC(CC(=O)Nc2ccc(OC)cc2OC)C(=O)N1/N=C/c1ccccn1 (stereo not given)
    2.4, /
CCCS(=O)(=O)c1c(S(=O)(=O)CCC)c2ccccn2c1C(=O)OC
    2.4, /
O=C(c1cc(-c2cccs2)on1)N1CCCC1
    -0.8, -0.95
Cc1cc(C)c(O)c(C2(O)C(=O)c3ccccc3C2=O)c1
    0.2, /
O=C(NCO)c1ccccc1Cl
    0.8, 0.53
CN(C)c1ccc(C2CC(=O)C3=C(C2)Nc2ccccc2NC3c2cccnc2)cc1 (stereo not given)
    -5.3, 2.1
CCn1c(=NC(=O)C(C)C)sc2cc(Br)ccc21
    -1.2, 1.3
CC(=O)NCc1ccc(C(=O)COC(=O)c2ccc(C#N)cc2)o1
    -0.6, /
CCOC(=O)c1cc2sc(C)cc2n1CC
    -5.6, 1.5
CC(Sc1nc(NC(C)(C)C)nc(N(C)C)n1)C(=O)Nc1ccccc1 (stereo not given)
    3.2, 0.12
C=CCN1C(=O)c2oc3ccccc3c(=O)c2C1c1ccccc1 (stereo not given)
    4.0, -0.25
COc1ccc(C=NNC(=O)C(C)n2cnc3ccccc3c2=O)cc1 (stereo not given)
    0.3, 0.68
O=C(O)COCC(=O)Nc1ccc2c(c1)OCCCO2
    2.2, 0.12
C=C1SC(Nc2cc(C)cc(C)c2)=NC1(C)C
    -0.3, 0.016
O=C(Nc1cccnc1Cl)c1noc2c1CCCCC2
    3.8, -0.56
C=CC1OC2CCCCC2C2=CCCCC21 (stereo not given)
    1.3, -0.45
Nn1c(SCC(=O)N2CCCc3ccccc32)nncc1=O
    0.7, 0.18
CCCCC[C@H](O)/C=C/[C@@H]1[C@@H](C/C=C\CCCC(=O)O)[C@H](O)C[C@H]1O
    -0.7, -0.3
CCc1ccc(C2=CC(=O)C=CC2=O)cc1
    2.2, /
CN(Cn1nc2sc3ccccc3n2c1=S)C1CCCCC1
    1.1, /
C/C(=N\O)C(C)(C)Nc1cc(C(F)(F)F)cc(C(F)(F)F)c1
    3.4, /
CCC(C)c1ccccc1NC(=O)c1ccc(Cl)nc1 (stereo not given)
    -0.2, /
CCn1cc(C(=O)NC2CCCc3ccccc32)c(=O)c2ccc(C)nc21 (stereo not given)
    1.4, /
C=CCn1c(N)nc2c1c(=O)n(C)c(=O)n2C
    2.8, 0.41
Cc1ccn(CCC(=O)Nc2ccc(F)cc2F)n1
    1.4, -1.3

The listing continues:
Value order – Ab BasE inh, LANA-nucl inh
COC(=O)N1CCC(C(=O)O)CC1
    /, -0.17
COc1ccc(-c2nc(N(C)c3ccccc3)[nH]c(=O)c2C#N)cc1
    -0.4, /
O=C(N=c1nc2ccccn2s1)c1ccccc1Cl
    -1.6, /
CCN(CC)CN1C(=O)NC2(CCC(C)CC2)C1=O (stereo not given)
    -4.3, /
CCCCn1c(=O)n(C)c(=O)c2c(=S)nc(-c3cccc(S(=O)(=O)N(C)C)c3)[nH]c21
    1.0, /
Cc1ccc(S(=O)(=O)Cc2ccc(N)cc2)cc1
    1.1, -0.15
O=C(CSc1nnc(-c2ccco2)o1)NCC(=O)c1ccccc1
    4.0, -0.72
Cc1ccc(N=Cc2c(N3CCCC3)nc3c(C)cccn3c2=O)cc1C
    1.4, /
CCCN(CCC)S(=O)(=O)c1ccc(C(=O)N2CC3CCC(CC3)C2)cc1
    0.2, /
Cc1c(C)c(C)c(S(=O)(=O)NCCCN(C)C)c(C)c1C
    /, -0.026
Cc1ccc(-c2oc3ccccc3c(=O)c2O)cc1
    2.1, -0.3
COc1cccc(NC(=O)Cn2ccc3c(OC)cccc3c2=O)c1
    0.5, -1.1
COc1ccc(N2C(=O)CCC2(C(N)=O)c2ccccc2)cc1 (stereo not given)
    -0.6, 0.69
COC(=O)C(C)(C)Sc1nnc2c(n1)[nH]c1c(C)cc(C)cc12
    3.7, 0.21
O=C(Nc1ccc(N2Cc3ccccc3C2)cc1)c1ncoc1-c1cccs1
    -2.0, 0.88
CC(Nc1ccc2c(c1)OCCO2)C(=O)N1CCCC1 (stereo not given)
    3.9, /
Cc1nnc(SCC(=O)N(CC(C)C)CC(C)C)[nH]c1=O
    1.8, /
O=C(OCc1cc(=O)oc2cc(O)ccc12)c1cc(=O)[nH]c2ccccc12
    3.2, /
COc1ccc(-c2cc(-c3nnc(COC(=O)CC4CCCC4)o3)c3ccccc3n2)cc1OC
    -3.1, /
O=C(O)C1(N2CCCCC2)CCCCC1
    0.6, -0.86
N#CCSC1=NS(=O)(=O)c2ccccc2N1
    -0.3, 1.6
NS(=O)(=O)c1ccc(NC(=O)CSc2ncccn2)cc1
    0.9, /
CCn1c(=O)c2ccccc2n(CC(N)=O)c1=O
    2.7, -1.4
Cc1cc2nn(-c3ccc(Cl)cc3)nc2cc1NC(=O)c1ccco1
    -0.6, /
Cn1ccnc1S(=O)(=O)/C(C#N)=C/c1ccc2c(c1)OCO2
    -4.9, /
CNc1cc(=O)n(-c2ccccc2)c(=O)n1-c1ccccc1
    0.6, /
COc1cccc2sc(N3CCCC3)nc12
    -2.2, -0.5
N#C/C(=C\c1ccc2c(c1)OCO2)C(=O)N1CCCC1
    -3.1, 1.1
Cc1nc(CSc2n[nH]c(C(C)(C)C)n2)cs1
    -0.7, /
CCCCn1c(=S)[nH]c2cc(S(=O)(=O)N3CCOCC3)ccc21
    -3.4, /

Four entries from above, sorted by molecular weight, lowest first.
Value order – Ab BasE inh, LANA-nucl inh
Cc1ccc(S(=O)(=O)Cc2ccc(N)cc2)cc1
    1.1, -0.15
Cc1nc2ccccc2c(=O)n1/N=C/c1ccccc1O
    -6.2, 2.6
O=C1CCCC2=C1C(c1cccc(Cl)c1)C1C(=O)c3ccccc3C1=N2 (stereo not given)
    2.8, /
CC(Sc1nc(NC(C)(C)C)nc(N(C)C)n1)C(=O)Nc1ccccc1 (stereo not given)
    3.2, 0.12

(next part)
Value order – Ab BasE inh, LANA-nucl inh
COc1cccc2[nH]c(=O)c(-c3ccccc3)cc12
    /, -0.56
COC(=O)/C(C#N)=C\c1c[nH]c2ccccc12
    0.6, 0.03
COc1ccc(C(=O)NCc2ccc(C#N)cc2)cc1OC
    4.0, /
O=C(Cc1ccc2c(c1)CCCC2)NC1=NCCS1
    -1.6, /
Cc1cc(C(=O)CN2C(=O)c3ccccc3S2(=O)=O)c(C)n1C
    0.1, /
CCC(=O)Nc1ccc(C(=O)OCc2ccccc2)cc1
    -1.6, 0.24

Some of the compounds tested (hit frequency here may not be typical).
